Bioassay records (PubChem BioAssay)
Vif A3G: inhibitors of Vif binding to APOBEC3G peptide, primary screen, biochemical, TR-FRET, GST-Vif 1-94, biotin-A3G peptide, dose response retest (AID 1117319); TR-FRET GST-Vif / biotin-A3G peptide binding; higher % means a stronger effect; test concentration not given here; strong numbers were not always called active; one-dose inhibition, %; IC50 in µM for titrated hits; actives 0.57% (n = 260,000);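 active means above the screen mean plus three standard deviations and confirmed in dose response; inconclusive means results disagree or hit not tested in dose response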;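 further: Vif residues 1-94 fused to GST binding biotinylated APOBEC3G peptide 110-148; 0% = full assay without inhibitor and 100% = GST in place of GST-Vif; retest series ran down from 100 µM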
AF4-AF9 inh: MLL-AF4/AF9 protein interaction inhibition; P42568; AlphaScreen, biotin-AF4 peptide binding to FLAG-AF9; inhibition, % at 10 µM; actives 0.47% (n = 350,000);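 active means every replicate reaching a set inhibition limit, whatever the replicate mean, cut at about 25% in these data; inconclusive means mean inhibition reaches that limit but some replicates miss it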;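 further: 0% = plate neutral control median and 100% = total signal loss; the record names both 10 and 1 µM as test concentration; the first replicate is given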
Target sequence (P42568 whole entry, looked up): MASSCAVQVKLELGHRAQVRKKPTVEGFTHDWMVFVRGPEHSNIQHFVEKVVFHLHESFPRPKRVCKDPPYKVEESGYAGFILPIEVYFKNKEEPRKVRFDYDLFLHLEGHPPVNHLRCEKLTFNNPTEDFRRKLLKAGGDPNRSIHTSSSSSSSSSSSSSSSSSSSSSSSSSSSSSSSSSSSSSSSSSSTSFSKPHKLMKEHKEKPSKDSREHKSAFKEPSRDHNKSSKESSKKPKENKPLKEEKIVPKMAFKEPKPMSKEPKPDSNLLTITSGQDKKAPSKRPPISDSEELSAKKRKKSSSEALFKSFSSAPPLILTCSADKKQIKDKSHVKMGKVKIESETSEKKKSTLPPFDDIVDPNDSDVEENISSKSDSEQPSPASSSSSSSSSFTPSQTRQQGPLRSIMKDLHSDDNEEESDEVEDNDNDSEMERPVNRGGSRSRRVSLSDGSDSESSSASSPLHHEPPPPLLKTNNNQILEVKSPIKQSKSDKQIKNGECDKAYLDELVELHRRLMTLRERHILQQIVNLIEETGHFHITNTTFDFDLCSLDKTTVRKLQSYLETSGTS
rRNA inh HTS: inhibits bacterial ribosomal RNA function over humanized ribosomes | E. coli WT GFP vs humanized-ribosome RFP mutants, fluorescence, 24 h; hits give low values; DMSO median 0, no signal -100 | GFP signal change (wild-type ribosome), % (concentration not given with the values) | actives 1.6% (n = 350,000);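 active means significant combined selectivity score with lowered wild-type GFP, culture density cut under 30%, mutant RFP and density less affected; inactive means any of these conditions unmet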; further: one replicate is shown; some compounds called inactive have numbers as strong as hits
ALR inh: human ALR oxidase inhibition via reduced H2O2; P55789; AID 485317; inhibition, % (test concentration not listed); purified ALR, DTT oxidation, H2O2 HRP-luminol luminescence; actives 3.8% (n = 290,000);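 active means mean and each replicate at 75% or more; inconclusive means only one of the two met; inactive means neither met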;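 further: stock transfer was 7.5 nL into about 7.5 µL; 0% = neutral wells and 100% = wells with inactivated enzyme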
Target sequence (P55789 whole entry, looked up): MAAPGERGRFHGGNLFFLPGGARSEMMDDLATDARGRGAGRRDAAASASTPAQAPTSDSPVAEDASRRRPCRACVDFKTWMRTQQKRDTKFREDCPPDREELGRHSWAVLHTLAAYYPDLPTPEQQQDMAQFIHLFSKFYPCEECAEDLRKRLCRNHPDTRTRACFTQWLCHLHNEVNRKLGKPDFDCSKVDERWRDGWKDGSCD
FGF22 binding: shifts melting point of recombinant human FGF22; Q9HCT0; calls only at 9.99 µM; recombinant FGF22 thermal shift, SYPRO orange fluorescence; percent of sucrose octasulfate shift, DMSO zero; actives 1.5% (n = 340,000);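 active means melting point raised past a set limit in the mean and every replicate; inconclusive means no clear call; three in four hits are not shown here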
Target sequence (Q9HCT0 whole entry, looked up): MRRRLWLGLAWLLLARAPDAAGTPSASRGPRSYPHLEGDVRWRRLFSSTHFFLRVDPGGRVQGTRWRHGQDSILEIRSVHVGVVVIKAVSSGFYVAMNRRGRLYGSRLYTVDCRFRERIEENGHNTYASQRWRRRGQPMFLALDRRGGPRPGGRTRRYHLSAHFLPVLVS
HNF4A DNA FP: change in binding of human HNF4 alpha to DNA; P41235; HNF4a-FITC DNA binding, fluorescence polarization, 1 h; activity change, % at 10 µM; actives 0.3% (n = 360,000); in the data active means activity change above about 30%, passing the limit was not always enough;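 further: controls were the assay level and a saturating level of protein; the project sought stronger binding though the title names inhibitors; some compounds called inactive have numbers as strong as hits; positive values seem to mean higher polarization but the record does not say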
Ecoli growth: inhibitors of Escherichia coli growth; OD600, 23 h; hits give low values; OD600 absorbance (concentration not given with the values); actives 0.21% (n = 330,000);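 active means OD600 absorbance below the run mean of sample wells minus 3.6 SD, in any replicate, cut at about 0.56 in these data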;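 further: stock transfer was 300 nL into about 60 µL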
rRNA inh HTS OD600: further read-out of rRNA inh HTS, marked with its call; OD600 change, %; measured here: OD600 growth;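 optical density of the mix in the first replicate; 0 = DMSO median and -100 = no signal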
rRNA inh HTS RFP: second read-out of rRNA inh HTS, no call of its own (marks repeat the call); RFP signal change, %; measured here: RFP humanized mutant strains;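 first replicate; 0 = DMSO median and -100 = no signal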
An asterisk follows results filed as active; i = inactive; ? = inconclusive; . = not tested or not shown. This is a subset; rates above refer to the full screens.

cpd	FGF22 binding	HNF4A DNA FP	ALR inh	Vif A3G	compound	AF4-AF9 inh	Ecoli growth	rRNA inh HTS	rRNA inh HTS RFP	rRNA inh HTS OD600
1	i	-8.5	-10	.	COc1ccc(OC)c(C(=O)Nc2c(O)ccc3ccccc23)c1	2.4	0.62	.	.	.
2	.	-1.0	-3	.	NS(=O)(=O)c1ccc(CNC(=O)c2ccc(Cl)cc2[N+](=O)[O-])cc1	.	0.69	.	.	.
3	i	3.6	.	.	COCC(=O)N1CCC(Oc2ccc(C(=O)N[C@H](C(=O)OC)C(C)C)cc2)CC1	-0.1	0.69	9	2.5	2
4	i	-0.6	.	.	COc1ccc(-n2nnnc2C(C2CC2)N2CCN(C/C=C/c3ccccc3)CC2)cc1 (stereo not drawn)	14	.	-38	-6.7	-72
5	.	-3.6	-3	11%	CCNC(=S)N/N=C(\C)c1cc2ccccc2o1	.	.	.	.	.
6	i	1.5	1	2%	CC(Oc1ccc2c3c(c(=O)oc2c1)CCC3)C(=O)NCCN1CCOCC1 (stereo not drawn)	?	0.7	1	0.6	6
7	i	-0.1	2	8%	COc1ccccc1OCCC(=O)OCC(=O)Nc1cc(S(=O)(=O)N(C)C)ccc1Cl	-0.3	0.67	.	.	.
8	i	.	.	.	CC(C)NC(=O)Nc1ccc2c(c1)C(=O)N([C@@H](C)CO)C[C@H](C)[C@H](CN(C)CC1CCCCC1)O2	-2.5	.	3	-0.6	-1
9	i	2.0	1	19%	Cc1[nH]nc2c1C(C(C)c1ccccc1)C(C#N)=C(N)O2 (stereo not drawn)	1.3	0.68	-9	-3.8	-14
10	i	0.5	-4	-2%	O=C(NCCN1C(=O)S/C(=C\c2ccccc2F)C1=O)C1=COCCO1	-3.5	0.72	3	-3.5	12
11	i	18	7	-1%	O=C(NC(=S)Nc1ccc(S(=O)(=O)Nc2nccs2)cc1)c1ccc(Br)o1	0.6	0.71	-14	1.0	-15
12	i	-3.7	-4	.	CSc1cccc(NC(=O)Cc2ccccc2[N+](=O)[O-])c1	1.6	0.66	-11	-3.8	-21
13	i	1.2	.	0%	Cc1cc(S(=O)(=O)Nc2ccc(C(=O)NCCN3CCOCC3)cc2)ccc1F	2.6	.	13	-0.1	7
14	i	.	.	.	CCCCCCCCN1C(=O)[C@@H](CC(=O)N2CCCC2)C[C@@]2(C(=O)OC)C1=C[C@H](C(C)(C)C)O[C@@H]2C	3.0	.	9	-1.0	11
15	.	0.4	0	3%	O=C(Nc1cccc(F)c1)c1ccc2c(c1)OCO2	.	0.66	.	.	.
16	i	.	.	.	N#C[C@H]1[C@@H](c2ccccc2-c2ccc(F)cc2)[C@H](CO)N1c1ncc(-c2ccccc2)s1	-2.3	.	1	0.0	10
17	.	5.4	14	21%	Cc1ccc(Cn2c(C)nc3c(c2=O)c2nc4ccccc4nc2n3Cc2ccco2)cc1	.	0.68	.	.	.
18	.	-2.1	-11	0%	COCCNC(=O)c1ccccc1NS(=O)(=O)c1ccc(Br)s1	.	0.7	.	.	.
19	i	8.7	.	4%	COc1cccc(/C=C2\SC(=S)N(CCCC(=O)N3CCOCC3)C2=O)c1	14	.	-19	6.1	-20
20	i	2.5	4	-1%	C/C(=N/NS(=O)(=O)c1ccc(F)cc1)c1ccncc1	-1.8	.	20	2.3	4
21	i	.	.	.	CC(=O)N(C)C[C@H]1Oc2ncc(C#Cc3cccnc3)cc2C(=O)N([C@H](C)CO)C[C@H]1C	-6.3	.	4	1.9	8
22	i	.	.	.	CC(C)NC(=O)NCC[C@H]1CC[C@@H](NC(=O)Nc2ccccc2)[C@@H](CO)O1	0.8	.	2	-1.3	3
23	i	-1.4	1	.	CC(C)Oc1ccc(C(=O)Nc2c3c(nn2C(C)(C)C)CS(=O)(=O)C3)cc1	-1.3	0.71	8	-2.8	3
24	i	5.9	.	7%	CCN(CC)C(=O)[C@H]1C[C@H](CC(=O)NCC23CC4CC(CC(C4)C2)C3)C(=O)N2CCc3c([nH]c4cc(CCC(=O)N(C)C)ccc34)[C@]12C	5.6	0.68	.	.	.
25	i	-8.9	5	3%	Cc1ccccc1NS(=O)(=O)c1nnc(NC(=O)c2ccc(Br)cc2)s1	2.8	0.65	-2	-0.9	2

Full records, quoted from the list. Screens in order: FGF22 binding	HNF4A DNA FP	ALR inh	Vif A3G	AF4-AF9 inh	Ecoli growth	rRNA inh HTS	rRNA inh HTS RFP	rRNA inh HTS OD600
Listed for COCC(=O)N1CCC(Oc2ccc(C(=O)N[C@H](C(=O)OC)C(C)C)cc2)CC1 = i	3.6	.	.	-0.1	0.69	9	2.5	2
Listed for CC(Oc1ccc2c3c(c(=O)oc2c1)CCC3)C(=O)NCCN1CCOCC1 (stereo not drawn) = i	1.5	1	2%	?	0.7	1	0.6	6
Listed for Cc1cc(S(=O)(=O)Nc2ccc(C(=O)NCCN3CCOCC3)cc2)ccc1F = i	1.2	.	0%	2.6	.	13	-0.1	7
Listed for COc1cccc(/C=C2\SC(=S)N(CCCC(=O)N3CCOCC3)C2=O)c1 = i	8.7	.	4%	14	.	-19	6.1	-20
Listed for CC(=O)N(C)C[C@H]1Oc2ncc(C#Cc3cccnc3)cc2C(=O)N([C@H](C)CO)C[C@H]1C = i	.	.	.	-6.3	.	4	1.9	8

(further entries)
cpd	FGF22 binding	HNF4A DNA FP	ALR inh	Vif A3G	compound	AF4-AF9 inh	Ecoli growth	rRNA inh HTS	rRNA inh HTS RFP	rRNA inh HTS OD600
26	i	.	.	.	Cn1cnc(S(=O)(=O)N2CCCCN3[C@@H](CO)[C@@H](c4ccc(-c5ccccc5)cc4)[C@@H]3C2)c1	2.0	.	6	-0.6	-6
27	i	0.2	0	4%	CCC(C)C(NC(=O)OCc1ccccc1)C(=O)NCC(c1ccccc1)N(C)C (stereo not drawn)	1.6	0.66	3	-1.1	2
28	i	0.2	-1	2%	COc1cccc(-n2nnc3c(=O)n(CC(=O)Nc4ccccc4C)cnc32)c1	-2.6	0.78	4	-2.5	13
29	.	-2.9	4	?	CCOC(=O)CC1COCCN1Cc1cn(C)nc1-c1ccccc1F (stereo not drawn)	-1.2	0.73	11	0.3	2
30	.	.	-9	-124%	COc1ccc(CN(C)c2nc(-c3cccnc3)nc3ccccc23)cc1OC	.	0.65	.	.	.
31	i	1.2	-5	-7%	Cc1ccc(S(=O)(=O)N(CC(=O)NCC2CCCO2)c2cccc([N+](=O)[O-])c2)cc1 (stereo not drawn)	0.1	0.65	-1	4.3	5
32	.	-2.2	-28	0%	S=C(Nc1cccc2ccccc12)N1CCN(c2ncccn2)CC1	.	0.7	-20	-5.6	-16
33	i	.	.	.	C[C@@H]1CCCCO[C@@H](CN(C)C)[C@H](C)CN([C@H](C)CO)C(=O)c2cc(NC(=O)CCC(F)(F)F)ccc2O1	-1.9	.	2	-2.2	10
34	i	-2.1	-15	2%	COc1c(Cl)cc(-c2noc(C)c2C(=O)NCCc2ccc(C)cc2)cc1Cl	2.2	0.74	-14	-2.5	-30
35	i	-10	-21	-15%	S=C(Nc1ccc2nsnc2c1)N1CCCCCC1	2.1	0.7	-22	-7.3	-46
36	i	-1.1	-7	-9%	Cc1cc(=O)oc2c1c(C)nn2-c1cccc(Cl)c1	1.0	0.72	6	2.3	2
37	.	15	-15	-5%	Cc1ccc(-c2nc(CN3CCCCC3CCN3CCCC3=O)c(C)o2)o1 (stereo not drawn)	-2.4	0.66	15	-2.0	12
38	.	2.4	.	-7%	O=S(=O)(c1ccc(NCC2CCCCC2)nc1)N1CCOCC1	.	0.69	.	.	.
39	i	-2.3	-32	-3%	COc1ccc(C(=O)NCC(=O)OCC(=O)NCc2cccs2)cc1	-0.2	0.67	7	1.7	8
40	i	-0.1	38	-1%	COCCCNC(=S)N/N=C/c1ccc2c(c1)OCO2	1.8	.	3	3.4	2
41	i	2.9	-4	-1%	COc1cc(CCC(=O)N2CCN(c3ccccc3Cl)CC2)cc(OC)c1OC	-3.6	0.67	7	1.8	4
42	.	-1.5	-20	19%	CSc1nc2c(c(-c3ccc(O)cc3)c1C#N)CCC2	.	0.73	.	.	.
43	.	-2.4	-10	1%	Cn1c(=O)c2ncn(CC(=O)NCCOc3ccccc3)c2n(C)c1=O	.	0.68	.	.	.
44	i	1.5	-2	9%	Cc1ccoc1C(=O)N1CCCC(CCC(=O)N2CCN(c3ccccn3)CC2)C1 (stereo not drawn)	-3.2	0.69	11	0.3	2
45	i	2.6	-8	?	CCOC(=O)C1=C(CN2CCOCC2)NC(=O)NC1c1cccc([N+](=O)[O-])c1 (stereo not drawn)	1.5	0.67	3	-5.6	0
46	.	1.1	-1	11%	COc1ccc(-c2cc(=O)n(-c3nc4ccccc4[nH]3)[nH]2)cc1	.	0.59	.	.	.
47	i	-2.6	7	-6%	CCn1c(SCC(=O)NNC(=O)c2ccco2)nnc1-c1ccco1	-2.0	0.72	7	2.4	8
48	.	-0.7	-24	-1%	Fc1cc2nccnc2cc1N1CCSCC1	.	0.73	.	.	.
49	.	-0.1	10	-8%	COc1ccccc1C(=O)Oc1ccccc1C(=O)Nc1ccccc1	-0.8	0.58	-25	-8.0	-45
50	i	.	.	.	CN1C(=O)c2cc(NC(=O)c3ccccc3)ccc2OC[C@H]2O[C@@H](CC(=O)NC3CCCC3)CC[C@@H]21	-1.3	.	2	-1.5	-1
51	.	-1.3	23	.	Cc1ccc(O)c(C(CC(=O)N2CCCC2)c2ccccc2)c1 (stereo not drawn)	.	0.66	.	.	.
52	.	2.1	.	?	CCC(NC(=O)C1CCC1)c1ccccc1 (stereo not drawn)	.	0.67	.	.	.
53	.	2.5	-10	25%	Cc1cccc(N(Cc2nnc3n2CCCCC3)C(=O)Nc2ccccc2)c1	.	0.63	.	.	.
54	.	2.1	85*	11%	Cc1c(O)c(CN2CCCC2)cc2c1oc(=O)c1ccccc12	.	0.67	.	.	.
55	i	.	.	.	CCC(=O)N(C)C[C@H]1Oc2cc(C#CC(C)(C)O)ccc2S(=O)(=O)N([C@H](C)CO)C[C@H]1C	-0.9	.	2	-3.5	6
56	i	-3.8	-1	-4%	Cc1ccc(S(=O)(=O)NC(CC(C)C)C(=O)N2CCCC2)cc1 (stereo not drawn)	-0.9	0.69	3	-1.8	1
57	i	-1.2	-10	.	Cc1ccc(C(=O)Nc2nnc(S(=O)(=O)N3CCOCC3)s2)cc1	-12	0.69	4	-2.4	19
58	.	1.1	.	-5%	Cc1cccnc1NC(=O)c1c(O)c2ccccc2n(C)c1=O	.	0.66	.	.	.
59	i	-2.2	-6	.	CCCNC(=O)C(Cc1ccc(F)cc1)NC(=O)c1ccccc1 (stereo not drawn)	-0.4	0.64	9	-2.0	11
60	i	0.2	1	.	O=S(=O)(NC1C2CC3CC(C2)CC1C3)c1ccccc1 (stereo not drawn)	-1.2	.	-40	0.3	-61
61	i	5.2	.	3%	Cc1ccc(O)c(C(=O)c2cnn(C(=O)c3cccc(S(=O)(=O)N(C)C)c3)c2)c1	0.4	0.65	1	-0.1	-2
